# Bioassay records (PubChem BioAssay)
# PrP UTR inh = suppresses PrP 5' UTR mRNA reporter expression; cell-based PrP 5' UTR mRNA reporter, plate reader; inhibition, % (test concentration not listed); 340,000 compounds, 0.35% hits; AID 488862;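 active = every replicate at 50% or more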;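 also: 0 = median of the neutral control wells; tested in H4 reporter cells; numbers are from one replicate; inactives centre near -14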
# ugtP null kill = growth inhibition of S. aureus ugtP deletion strain; S. aureus RN4220 ugtP deletion, OD600 growth, 16 h; some inactives read as strong as hits; growth inhibition, % (test concentration not listed); 330,000 compounds, 0.54% hits;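 active = z-score under -3 and OD600 up to 0.15 on both plates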;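 also: plate controls were untreated wells for no effect and antibiotic for full effect; wells of about 80 µL received 100 nL stock; the first replicate is given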
# RN4220 kill = S. aureus RN4220 growth inhibition; OD600, 16 h; inhibition, % (no concentration beside the values); 330,000 compounds, 0.33% hits; AID 1259311;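 active = z-score of -3 or lower and OD600 up to 0.18 on both plates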;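 also: plate controls were untreated cells for no effect and reference antibiotic for full effect; stock transfer was 100 nL into about 80 µL; one replicate is shown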
# BJeLR lethal = kills HRASV12-expressing BJeLR cells. 300,000 compounds, 0.17% hits. BJeLR (HRASV12) viability, CellTiter-Glo ATP luminescence, 48 h; reference of the scale not given here. inhibition, % (test concentration not listed);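 active = replicate mean above 50%; inconclusive = above 50% but judged a plate artefact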;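 also: 50 nL library stock added to about 25 µL; numbers are from one replicate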
# Mtb hypoxia inh = Mtb hypoxia fluorescent reporter inhibition. M. tuberculosis hypoxia-regulated fluorescent reporter, fluorescence. fluorescence inhibition, % (concentration not given with the values). 300,000 compounds, 0.1% hits. AID 1159583;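 active = 35 to 45% if threefold the growth effect, above 45% if 1.5-fold the growth effect; inactive = the rest, general growth blockers included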;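 also: wells of about 50 µL received 100 nL stock; 0% = vehicle wells and 100% = reference inhibitor wells; whole bacteria with a GFP reporter of the hypoxia response; strong numbers were not always called active; many hits fall short of the cut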
# Bead autofluor = counter-screen for toxin protease inhibitors: compound fluorescence; compound autofluorescence counterscreen, microsphere flow cytometry; stronger effect = higher value; fluorescence intensity (test concentration not listed); 360,000 compounds, 3.1% hits; AID 624483;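 active = at least 3 SD above the mean of all compounds, about 16000 in these data; inconclusive = too few beads counted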;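 also: 100 nL of 1 mM stock went into each well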
# Mtb hypoxia inh growth = recorded beside Mtb hypoxia inh, whose call it bears; growth inhibition, %; measured here: M. tuberculosis growth (absorbance);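 0% = vehicle and 100% = reference antibiotic; read after six days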
# Starred values were filed as active, the others as inactive; ? = inconclusive; · = not tested or not shown.
# A first look, seven compounds:
Structure | BJeLR lethal | Mtb hypoxia inh | PrP UTR inh | Mtb hypoxia inh growth | RN4220 kill | Bead autofluor | ugtP null kill
CCn1cc(C(=O)NCc2ccco2)c(=O)c2cc(S(=O)(=O)N3CCC(C)CC3)ccc21 | 7 | · | -19 | · | · | 20447* | ·
O=C(NCc1ccccn1)C1CCN(S(=O)(=O)c2ccccc2)CC1 | 3 | 9 | 9 | 5 | 7.4 | 3364 | 0
O=C(Nc1ccccc1C(=O)O)c1ccc2c(c1)C(=O)N(c1cccc([N+](=O)[O-])c1)C2=O | -3 | -4 | · | 0 | 3.3 | 3418 | 5
COc1ccc(CCC(=O)N2CCN(S(=O)(=O)c3ccc(OC)cc3)CC2)cc1 | · | -3 | -15 | -4 | 6.1 | 6030 | 6
CC1CCc2c(sc(NC(=O)CCC(=O)O)c2C(=O)NC2CC2)C1 (stereo not given) | 5 | -4 | -22 | 3 | 4.1 | 6687 | 3
O=C(Nc1nc(-c2ccccc2)nc2ccccc12)c1ccc(F)cc1 | 0 | -1 | -2 | -1 | -3.5 | 1963 | -9
C[C@@H]1CC=C[C@H]2[C@H]1C(=O)N(Cc1ccccc1)[C@H]2c1ccc(F)c(/C=C/c2ccccc2)c1 | 4 | · | -9 | · | · | 3913 | ·

# The listing (from the top)
Structure | BJeLR lethal | Mtb hypoxia inh | PrP UTR inh | Mtb hypoxia inh growth | RN4220 kill | Bead autofluor | ugtP null kill
CCn1cc(C(=O)NCc2ccco2)c(=O)c2cc(S(=O)(=O)N3CCC(C)CC3)ccc21 | 7 | · | -19 | · | · | 20447* | ·
O=C(NCc1ccccn1)C1CCN(S(=O)(=O)c2ccccc2)CC1 | 3 | 9 | 9 | 5 | 7.4 | 3364 | 0
O=C(Nc1ccccc1C(=O)O)c1ccc2c(c1)C(=O)N(c1cccc([N+](=O)[O-])c1)C2=O | -3 | -4 | · | 0 | 3.3 | 3418 | 5
COc1ccc(CCC(=O)N2CCN(S(=O)(=O)c3ccc(OC)cc3)CC2)cc1 | · | -3 | -15 | -4 | 6.1 | 6030 | 6
CC1CCc2c(sc(NC(=O)CCC(=O)O)c2C(=O)NC2CC2)C1 (stereo not given) | 5 | -4 | -22 | 3 | 4.1 | 6687 | 3
O=C(Nc1nc(-c2ccccc2)nc2ccccc12)c1ccc(F)cc1 | 0 | -1 | -2 | -1 | -3.5 | 1963 | -9
C[C@@H]1CC=C[C@H]2[C@H]1C(=O)N(Cc1ccccc1)[C@H]2c1ccc(F)c(/C=C/c2ccccc2)c1 | 4 | · | -9 | · | · | 3913 | ·
COc1ccc(C(CNC(=O)c2ccc3c(c2)C(=O)N(CCC(C)C)C3=O)N2CCOCC2)cc1 (stereo not given) | -7 | -6 | -22 | 5 | -2.8 | 4196 | -2
Cc1ccc(CNC(=O)c2ccc(N3CCC4(CC3)CC(c3ccccc3)=NO4)c(NC(=O)c3ccc(Cl)c([N+](=O)[O-])c3)c2)cc1 | -7 | -1 | 2 | 10 | -2.0 | 4097 | -7
Cc1cc(C=C2C(=O)NC(=O)NC2=O)c(C)n1-c1ccncc1 | -8 | 7 | -22 | 3 | 9.4 | 4101 | 5
Cc1cc(=O)c2c(O)c(O)ccc2o1 | -1 | 9 | -10 | -3 | 1.9 | 3919 | -3
CCCn1c2ccccc2c2cnn(CC(=O)NCCN(C)C)c(=O)c21 | -2 | 1 | -22 | 0 | 5.5 | 4486 | 12
C=CCn1c(SCC)nc(O)cc1=O | -5 | 3 | -17 | 9 | -1.2 | 5655 | 1
CSc1ccc(C=NN2CCN(Cc3ccccc3)CC2)cc1 | · | 2 | · | 0 | 3.2 | · | 7
Cc1noc(NS(=O)(=O)c2ccc(N/C=C\C(=O)c3ccc(F)cc3)cc2)c1C | 9 | -2 | -36 | 13 | 2.9 | 4194 | -2
CCOC(=O)c1c(NC(=O)C(=O)N/N=C/c2ccccc2O)sc2c1CCCCC2 | -16 | · | 21 | · | · | 7329 | ·
CCOc1ccc(NC(=O)Cn2nnc(C(=O)NCc3ccccc3OC)c2N)cc1 | -1 | · | -10 | · | -0.6 | 2759 | 9
CCc1cc(Cn2nc(-c3ccccc3)cc2C(=O)NCc2cccc(C(F)(F)F)c2)on1 | -9 | · | -3 | · | · | 4075 | ·
CCOC(=O)c1nnc(-c2ccc(C)cc2)nc1Oc1ccccc1Cl | 3 | · | -41 | · | 2.5 | 2370 | 6
CN1CCN(C(=S)C(=O)Nc2ccccc2)CC1 | · | 1 | -24 | 7 | 4.6 | 4488 | 1
Cc1cc(C)c2c(N)c(C(=O)c3ccccc3Cl)sc2n1 | 7 | -1 | -15 | -5 | -1.7 | 6777 | -38
Cc1ccc2cc3cc(C(=O)N4CCC5(CC4)OCCO5)oc3nc2c1 | 0 | · | -33 | · | -5.1 | 2712 | 19
COc1ccc(NC(=O)CSc2ccc3c(c2)OCCO3)cc1S(N)(=O)=O | · | 10 | -8 | 4 | 1.4 | 3954 | 1
O=C(c1ccc(COCC(F)(F)F)o1)N1CCCCCC1 | 10 | · | -18 | · | -1.0 | 2910 | 6
COC(=O)[C@@H]1C[C@H]2CC[C@H](O)C[C@H]2N1Cc1ccc(-c2ccccc2)cc1 | 16 | · | -8 | · | · | 3983 | ·

# Entries of single compounds as entered above:
# Cc1cc(=O)c2c(O)c(O)ccc2o1 across the screens: BJeLR lethal: -1; Mtb hypoxia inh: 9; PrP UTR inh: -10; Mtb hypoxia inh growth: -3; RN4220 kill: 1.9; Bead autofluor: 3919; ugtP null kill: -3
# CCc1cc(Cn2nc(-c3ccccc3)cc2C(=O)NCc2cccc(C(F)(F)F)c2)on1 across the screens: BJeLR lethal: -9; Mtb hypoxia inh: ·; PrP UTR inh: -3; Mtb hypoxia inh growth: ·; RN4220 kill: ·; Bead autofluor: 4075; ugtP null kill: ·
# CN1CCN(C(=S)C(=O)Nc2ccccc2)CC1 across the screens: BJeLR lethal: ·; Mtb hypoxia inh: 1; PrP UTR inh: -24; Mtb hypoxia inh growth: 7; RN4220 kill: 4.6; Bead autofluor: 4488; ugtP null kill: 1

# Additional compounds:
Structure | BJeLR lethal | Mtb hypoxia inh | PrP UTR inh | Mtb hypoxia inh growth | RN4220 kill | Bead autofluor | ugtP null kill
O=C(CSc1nc2ccccc2c(=O)n1-c1ccc(Cl)cc1)c1ccco1 | 0 | · | -23 | · | -3.4 | 4410 | -7
O=C(CCCN1CCC(c2ccccc2)C1)c1ccc2c(c1)OCCO2 (stereo not given) | 5 | 6 | -18 | 4 | 0.7 | 12732 | -4
Cc1ccc(-c2noc(CCC(=O)NCCN3CCN(Cc4ccccc4)CC3)n2)cc1 | · | · | -14 | · | -0.4 | 2133 | -1
CC(C)CC(=O)Nc1c2c(nn1-c1ccc(F)cc1)CS(=O)C2 (stereo not given) | -12 | · | -8 | · | · | 5199 | ·
CCC(C)NC(=O)c1cc(OC)c(OC)c(OC)c1 (stereo not given) | 3 | 10 | 12 | 7 | 4.5 | 8065 | 11
O=C(CSc1ccccc1F)Nc1ccc(N2CCOCC2)cc1 | · | 5 | -31 | -2 | 0.3 | 2937 | 7
O=C(O)Cn1c(=O)c2c(c3ccccc31)CCC2 | -3 | · | -16 | · | · | 3577 | ·
COc1ccc(CCC(C)N2CCC(Oc3ccc(C(=O)N4CCCC4)cc3)CC2)cc1 (stereo not given) | -4 | 2 | 3 | 11 | 3.5 | 7358 | 4
CCc1ccccc1NC(=O)c1cnc2scc(C)n2c1=O | -6 | 4 | -20 | 14 | 3.1 | 5551 | 2
Cc1ccc(C(C(=O)NC2CCCC2)N(Cc2ccc3c(c2)OCO3)C(=O)Cc2cccs2)cc1 (stereo not given) | 11 | 0 | -3 | 5 | 1.7 | 3197 | -19
O=C(/C=C/c1ccccc1F)c1cccc([N+](=O)[O-])c1 | 9 | 11 | -10 | 18 | 29 | 2527 | 7
Cc1nn(C)c(C)c1Nc1ccc(N2C(=O)C3CC=CCC3C2=O)cc1[N+](=O)[O-] (stereo not given) | 1 | 6 | -6 | 4 | 3.3 | 4485 | 18
CCCNC(=O)N1CCC(Cc2ccccc2)CC1 | 2 | · | 8 | · | 1.2 | ? | 7
COc1ccc2oc(C(=O)OCC(=O)N(C)C3CCS(=O)(=O)C3)c(C)c2c1 (stereo not given) | -3 | 2 | -13 | 0 | 1.8 | 4210 | 2
Cc1cc(N2CCN(C(=O)c3ccco3)CC2)n2nc(-c3cccc(F)c3)cc2n1 | -7 | 10 | -2 | 9 | 5.0 | 10420 | -24
COc1ccc(C(=O)NCC(C)(c2ccccc2)c2ccccc2)cc1S(=O)(=O)N1CCOCC1 | · | -6 | -14 | 5 | 2.8 | 4074 | 1
CCc1nnc2c(N(C)S(=O)(=O)c3ccc(C)cc3)nc3ccccc3n12 | -7 | 4 | -1 | 1 | 2.4 | 5293 | -2
c1cncc(-c2ccc3[nH]ccc3c2)c1 | · | 7 | -20 | 9 | 5.5 | 4576 | -15
COc1cc2c(cc1NC(=O)/C=C/c1cc(OC)c(OC)c(OC)c1)oc1ccccc12 | -9 | -1 | -2 | 12 | -6.4 | 1943 | 7
CN1CCN(C(=O)c2ccccc2NC(=O)c2ccccc2)CC1 | 3 | 1 | -61 | 6 | 0.4 | 5048 | 4
Cc1cccnc1NC(=O)CCCN1C(=O)c2ccccc2C1=O | 4 | -5 | -28 | -1 | -0.5 | 9480 | -3
CC(=O)Nc1ccc(NC(=O)C2CCCN2S(=O)(=O)c2cccc3nsnc23)cc1 (stereo not given) | 0 | -9 | -21 | 9 | -3.2 | 4472 | -14
N/C(=N\O)c1ccc(NC(=O)c2ccc(Br)o2)cc1 | -4 | · | -49 | · | · | 3830 | ·
COc1ccc(C2/C=C\CN(C(=O)C3CC3)CC(=O)N2Cc2ccc(F)cc2)cc1 (stereo not given) | 1 | · | -8 | · | · | 3996 | ·
CCn1ccnc1CN(C)C(=O)c1cc(COc2ccccc2SC)on1 | -3 | 2 | 17 | -4 | 7.8 | 6403 | 7
O=c1[nH]c(/C=C/c2ccc(Cl)cc2Cl)c([N+](=O)[O-])c(=O)[nH]1 | -11 | 6 | -6 | 10 | 2.9 | 3592 | 0
O=C(O)CCCn1cc(NC(=O)COc2ccc([N+](=O)[O-])cc2)cn1 | -11 | 3 | -19 | 1 | 1.1 | 4796 | -4
COc1ccc(/C=C/C(=O)OCC(=O)NCCC2=CCCCC2)cc1 | -1 | 7 | -7 | 11 | 3.8 | 4445 | 12
O=C1NC[C@@H](Cc2ccc(O)cc2)N(CCc2cccc3ccccc23)C1=O | -3 | · | -40 | · | · | 4034 | ·
O=C(Nc1ccccn1)C12CC3CC(C1)CC(C(=O)Nc1ccccn1)(C3)C2 | 10 | 4 | -20 | -2 | 5.9 | 4482 | -5
COc1ccc(C(=O)NN=Cc2sc(=O)n(Cc3cccc(C(=O)O)c3)c2Cl)cc1 | · | 5 | · | 8 | 3.9 | · | 2
COc1cccc(NC(=O)CN(C)C(=O)c2cc(-c3ccccc3)nn2-c2ccccc2)c1 | · | 3 | -9 | 6 | -3.0 | 2822 | 12
O=C1CCNc2c(Cl)cccc21 | 9 | 9 | -14 | 2 | 1.5 | 3864 | 3
COc1ccc(C(CNC(=O)C(=O)Nc2ccc3c(c2)OCO3)N2CCN(C)CC2)cc1 (stereo not given) | 2 | 0 | -14 | 8 | -1.5 | ? | 3
CCC(C)NC(=S)Nc1ccc2nc(N3CCN(CC)CC3)cc(C)c2c1 (stereo not given) | 1 | 3 | -20 | 3 | 1.6 | 5006 | -1
CCOC(=O)c1cc2c(=O)[nH]ccc2nc1C(F)(F)F | -5 | 0 | -17 | 2 | 12 | 4132 | -6
CCOC(=O)c1c(NC(=O)CCC(=O)O)sc2c1CC(C)(C)OC2 | -5 | -2 | -5 | 7 | -0.9 | 4552 | 3
COc1cccc(NC(=O)CSc2nncn2-c2ccccn2)c1 | 1 | 17 | -29 | 2 | 3.4 | 9292 | 0
O=C(O)c1ccc2c(c1)-c1nc3ccccc3n1C2=O | -10 | 2 | -15 | 3 | 2.0 | 3780 | 1
CCC1=Nc2cc(C(=O)NCCN3CCCC3)ccc2Sc2ccc(C)cc21 | 1 | 4 | -16 | -3 | -2.5 | 7427 | 6
Cc1ccc(NC(=O)CN2c3cccc4cccc(c34)S2(=O)=O)cc1 | · | 7 | 3 | 5 | 4.8 | 6302 | 6
CCn1c(=O)c2c(nc3n2CC(C)CN3CCc2ccccc2)n(C)c1=O (stereo not given) | -4 | 3 | -1 | 5 | -1.0 | 4502 | 1
Cc1ccc(S(C)(=O)=O)cc1C(=O)Nc1cccc(S(=O)(=O)N2CCCCCC2)c1 | · | 23 | -4 | 12 | 3.6 | 3738 | 4
